MT1-MMP reporter: MT1-MMP gene expression reporter suppression – cell-based, luciferase reporter, luminescence (AID 618); calls from a first round at 10 µM; hits with a dose series show EC50 in µM; MT1-MMP promoter luciferase reporter cells, luminescence; hit rate 0.62% among 87,000;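 active = over half of the reporter light lost at 10 µM or EC50 under 50 µM; inactive = the rest and hits that failed the dose series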;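 also: actives suppress MT1-MMP promoter-driven transcription so potencies describe inhibitors; HT1080 fibrosarcoma cells; overnight exposure; toxic or luciferase-blocking compounds were not removed from the actives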
WNV protease inh: inhibitors of West Nile virus NS2B-NS3 protease; WNV NS2B-NS3 protease, fluorogenic substrate Ex360/Em465; active compounds read low; z-score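 (tested at a level between 10 and 100 µM)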; hit rate 0.18% among 65,000; P06935;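 active = z-score at -3 or under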;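 also: score is relative to mean and spread of the compound wells of a plate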
Target sequence (P06935 1371-1501 limits assumed): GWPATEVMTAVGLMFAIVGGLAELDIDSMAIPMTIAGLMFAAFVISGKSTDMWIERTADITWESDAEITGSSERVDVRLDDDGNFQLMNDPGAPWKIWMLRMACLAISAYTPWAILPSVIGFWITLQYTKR
Target sequence (P06935 1502-1679 limits assumed): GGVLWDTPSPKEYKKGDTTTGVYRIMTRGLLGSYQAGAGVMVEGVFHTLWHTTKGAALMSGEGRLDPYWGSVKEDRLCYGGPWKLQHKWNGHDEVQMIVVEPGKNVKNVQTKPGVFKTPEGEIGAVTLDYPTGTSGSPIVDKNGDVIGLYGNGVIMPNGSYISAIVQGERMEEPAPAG
Hsc70: Hsc70 inhibitors, probe displacement, primary screen, biochemical, fluorescence polarization (AID 568) | Hsc70 fluorescence polarization, probe displacement; higher % means a stronger effect; strong numbers were not always called active | displacement, % at 20 µM, or IC50 in µM where a hit was titrated | 83,000 tested, under 10 active;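 active = displacement above 50% without optical interference and an IC50 on retest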;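 also: ATPase domain with a fluorescein-tagged ATP probe; 0% = vehicle and 100% = excess ADP; read after one hour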
* = called active by the depositor; i = inactive; · = no result given; + = active, no number.

| Molecule | MT1-MMP reporter | WNV protease inh | Hsc70 |
| --- | --- | --- | --- |
| COc1cc(C(=O)Nc2cc(Cl)ccc2C)c(-n2cnnn2)cc1OC | i | 0.53 | 5.2% |
| COc1ccc(S(=O)(=O)N(CC(=O)N2CCN(c3ccccc3)CC2)c2ccccc2)cc1 | i | · | -5.7% |
| COc1ccc(C2C=C(c3ccc(C)c(C)c3)Nc3ncnn32)c(OC)c1OC (stereo unspecified) | i | 0.18 | 2.5% |
| Cc1c(C(=O)NCc2ccc3c(c2)OCO3)oc2ccccc12 | i | 0.97 | 2.7% |
| CCCN(CCC)C(=O)Cn1ccc(=N)c2ccccc21 | i | -0.58 | 5.1% |
| Cc1sc(NC(=O)c2ccco2)c(CN2CCN(c3ccccn3)CC2)c1C | i | -1 | 5.0% |
| CC1CCCN(c2nc3c(c(=O)[nH]c(=O)n3C)n2CCSc2ncccn2)C1 (stereo unspecified) | i | -1.2 | 2.4% |
| COc1cc(-c2nnn(CC(=O)N3CCOCC3)n2)cc(OC)c1OC | i | · | 0.9% |
| O=C(CN(Cc1ccccc1Cl)C(=O)c1ccc(CN2CCOCC2)o1)NCC1CCCO1 (stereo unspecified) | i | · | 1.7% |
| COc1ccc(-c2cnnn2-c2ccc(NC(=O)c3ccco3)cc2)cc1OC | i | 0.74 | 1.8% |
| O=C(CCCCC(=O)N1CCN(c2ccccc2)CC1)N1CCN(c2ccccc2)CC1 | i | -1.1 | -2.6% |
| Cc1cc(C)nc(SCC(=O)Nc2cc(C)on2)n1 | i | 0.27 | -3.2% |
| COc1ccc(NC(=O)C2CCN(S(=O)(=O)c3ccc(OC)c(OC)c3)CC2)c(OC)c1 | i | 1.8 | -2.2% |
| CCc1ccccc1N1C(=O)C2CC(C)=C(C)CC2C1=O (stereo unspecified) | i | 0.3 | -1.7% |
| COc1ccc(C)cc1NC(=O)c1ccc(N(C)S(C)(=O)=O)cc1 | i | -0.42 | 3.3% |
| CCCOc1ccc(OCCSc2nnc(N)s2)cc1 | i | · | 0.7% |
| Cc1cc2c(cc1C)NC(=O)CC(C(F)(F)C(F)(F)C(F)(F)F)=N2 | i | · | 5.5% |
| COC(=O)c1sc(NC(=O)COc2ccccc2)nc1C | i | -0.93 | 4.9% |
| CCOC(=O)C1=C(CSc2nc(-c3ccccc3)ccc2C#N)OC(N)=C(C#N)C1c1ccccc1 (stereo unspecified) | i | · | -9.4% |
| CCOc1ccc(-c2cc(C(=O)NCCCN3CCN(CC)CC3)c3ccccc3n2)cc1 | i | -1.5 | -0.1% |
| CC1CN(Cc2nc3c(c(=O)[nH]c(=O)n3C)n2CCCc2ccccc2)CC(C)O1 (stereo unspecified) | i | 1.4 | -1.0% |
| O=C(NC1CCCCC1)N1CCN(C(=O)c2ccco2)CC1 | i | · | 3.5% |
| CCOC(=O)c1cccc(NC(=O)CSc2nnc(COc3ccccc3)n2CC)c1 | i | 0.6 | 4.3% |
| COc1ccc(N2CCN(c3nc(=S)n(-c4ccccc4)c(C)c3C(C)=O)CC2)cc1 | i | 0.1 | -13% |
| Cc1ccc(S(=O)(=O)NCC(=O)N(CC(=O)NC(C)(C)C)Cc2cccs2)cc1 | i | · | -5.3% |
| COc1ccc2nc(N3CCCC3)[nH]c2c1 | i | -1.3 | -4.5% |
| CCOC(=O)N1CCC(N(CCOC)C(=O)Nc2ccc(Cl)c(Cl)c2)CC1 | i | -0.09 | -1.0% |
| CCn1c(NC(=O)c2cccs2)c(-c2cccs2)c(=O)c2ccccc21 | i | 1.5 | -2.0% |
| Cc1cc2nnc(SC(C)C#N)n2c2ccccc12 (stereo unspecified) | i | 2.2 | 4.1% |
| CCNc1oc(COc2cccc(C)c2)nc1C#N | i | 1.2 | 3.6% |
| COc1ccc(C2CC(C(F)(F)F)n3nc(C(=O)NCCN4CCOCC4)cc3N2)cc1 (stereo unspecified) | i | 2.1 | -5.6% |
| COc1ccc(C(C#N)N2N=C(C)CC2(C)C)cc1 (stereo unspecified) | i | · | -2.1% |
| c1coc(CNc2nc(-c3ccncc3)cs2)c1 | i | 1.7 | -0.6% |
| CCc1noc(C)c1C(=O)N1CCOCC1 | i | -0.49 | -1.9% |
| Cc1cccc(CC(=O)Nc2cc(=O)n(C)c(=O)n2C)c1 | i | 0.37 | 2.3% |
| COCCn1nnnc1CN(Cc1cc2cc(OC)c(OC)cc2[nH]c1=O)C1CCCC1 | i | -0.92 | 3.4% |
| CC(C)(C)NC(=O)C12CCC(C)(c3nc4ccccc4nc31)C2(C)C (stereo unspecified) | i | · | 1.6% |
| CCN1C(=O)/C(=c2/s/c(=C3\SC(C)=C(C)N3CC)c(=O)n2CC)N(c2ccccc2)C1=S | i | · | -2.1% |
| Cc1cc(C)c(C#N)c(SCC(=O)Nc2ccccc2C(N)=O)n1 | i | -0.54 | 3.1% |
| CCOC(=O)C1C(=O)Nc2nc(C)nn2C1c1ccccc1 (stereo unspecified) | i | -0.73 | -1.3% |
| O=C(NCc1cccs1)C1CCCN(S(=O)(=O)c2cnc[nH]2)C1 (stereo unspecified) | i | 0.12 | 2.0% |
| Cc1cc2oc(=O)cc(CN3CCc4ccccc43)c2cc1Cl | i | 0.74 | -4.4% |
| CCOc1cc(NC(=O)C2CC2)c(OCC)cc1NC(=O)c1cccnc1 | i | -0.62 | 1.2% |
| O=C(Nc1ccc(N2CCCC2=O)cc1)c1cccc(F)c1 | i | -0.15 | 7.1% |
| O=C(CN1C(=O)C2CCCN2C(=O)c2ccccc21)Nc1ccccc1-n1cccc1 (stereo unspecified) | i | 0.99 | 1.6% |
| COc1ccc(OCC(=O)NC2CC(C)(C)NC(C)(C)C2)cc1 | i | -0.84 | -0.2% |
| CCOC(=O)c1ccc(S(=O)(=O)Nc2ccc3cn[nH]c3c2)cc1 | i | · | 4.4% |
| CCS(=O)(=O)N1CCC(C(=O)c2ccc(Cl)cc2)CC1 | i | · | -1.3% |
| Cc1conc1NC(c1cccs1)c1ccc2cccnc2c1O (stereo unspecified) | i | 3.6 | 0.9% |
| COCCNC(=O)c1ccccc1-c1nc(-c2ccccc2OC)no1 | i | -0.21 | 2.2% |

(next part)
| Molecule | MT1-MMP reporter | WNV protease inh | Hsc70 |
| --- | --- | --- | --- |
| Fc1ccccc1N1CCN(c2ncnc3[nH]ncc23)CC1 | i | -0.9 | 0.7% |
| CCCc1cc(=O)[nH]c(SCC(=O)C(C)(C)C)n1 | i | · | 1.7% |
| CCn1cc(C(=O)OCC(=O)Nc2c(C)n(C)n(-c3ccccc3)c2=O)c(=O)c2ccc(C)nc21 | i | -0.36 | 0.4% |
| O=S(=O)(NCc1ccco1)c1cccc2cccnc12 | i | -0.44 | 10% |
| Cc1ccc(-c2nc(CS(=O)(=O)CC(=O)N3CCCCCC3)c(C)o2)cc1 | i | 1.1 | 0.0% |
| COC(=O)c1c(C)oc2ccc(NS(=O)(=O)c3cc(OC)ccc3OC)cc12 | i | -1.3 | -2.6% |
| Cc1ccccc1NC(=O)CN1C(=O)NC2(CCCCC2)C1=O | i | · | -3.1% |
| CC(=O)Nc1ccc(C(=O)N2CCCC2)cc1 | i | · | 2.7% |
| CC(C)(C)c1ccc(C(O)CCCN2CCC(C(O)(c3ccccc3)c3ccccc3)CC2)cc1 (stereo unspecified) | + | -0.53 | 3.0% |
| Cc1cc(-c2csc(N)n2)c(C)n1C | i | · | 7.2% |
| O=C(CSCc1n[nH]c(=O)[nH]1)NCCOc1cccc(Oc2ccccc2)c1 | i | 0.32 | 9.0% |
| CC(Oc1ccc(C(=O)NC2CCCCC2)cc1)C(=O)O (stereo unspecified) | i | -1.4 | -1.3% |
| Cc1ccc(Cn2c(Sc3ncccn3)nc3c2c(=O)[nH]c(=O)n3C)cc1 | i | 2.8 | 3.9% |
| CS(=O)(=O)N1CCCC(c2nc(-c3ccc(S(=O)(=O)NCc4ccccc4)cc3)no2)C1 (stereo unspecified) | i | 2.2 | -3.2% |
| CC(C)Cc1nnc(NC(=O)CC(=O)Nc2ccccc2C(=O)O)s1 | i | · | 6.3% |
| CCOC(=O)c1cc(-c2ccccc2)sc1NC(=O)CSc1nnnn1C | i | 0.39 | -10% |
| CCOc1ccc(OCC)c(NC(=O)CC2Oc3ccc(C)cc3NC2=O)c1 (stereo unspecified) | i | 0.11 | 1.5% |
| c1coc(C2Nc3ccccc3-c3nc4ccccc4n32)c1 (stereo unspecified) | i | 0.45 | -2.0% |
| CCCC(=O)N1CCN(c2ccc(NC(=O)C(C)(C)C)cc2)CC1 | i | · | 0.7% |
| C=CCn1c(SC/C=C/c2ccccc2)nnc1-c1sc(N)nc1C | i | -1 | 2.0% |
| CCN(CC)C(=O)c1sc2nc(-c3ccncc3)[nH]c(=O)c2c1C | i | 0.28 | -1.3% |
| Cn1c(=O)n(Cc2ccccc2)c(=O)c2c1nc1n2CCCN1CCc1ccccc1 | i | · | -4.2% |
| COc1cccc(-c2cc(C(=O)Nc3c(C)nn(Cc4ccccc4C)c3C)no2)c1 | i | -0.54 | -1.5% |
| COc1ccc(NC(=O)CSc2ccc3c(c2)OCCO3)cc1OC | i | · | 7.2% |
| O=C(NCCC1=CCCCC1)C1CCN(S(=O)(=O)N2CCOCC2)CC1 | i | 1 | 4.0% |
| COc1ccc(-c2cc(-c3ccc(OC)c(OC)c3)n[nH]2)c(O)c1 | i | · | 4.1% |
| CCOc1ccc(C)cc1S(=O)(=O)n1ccnc1 | i | 1.2 | -4.8% |
| O=C(Nc1c(Cl)cc(Cl)cc1-c1nc2ccccc2s1)c1ccc(Br)o1 | i | · | 0.3% |
| Cn1c(=O)[nH]c(=O)c2c1nc(Br)n2Cc1ccccc1Cl | i | 0.81 | 6.9% |
| C=CCN(C(=O)CCC(=O)O)C1CC(=O)N(c2ccc(OCCC)cc2)C1=O (stereo unspecified) | i | -0.92 | 6.2% |
| Cc1c(O)ccc2c3c(c(=O)oc12)CCC(C)C3 (stereo unspecified) | i | 0.5 | -4.1% |
| C=CCn1c(SCc2nc3ccccc3[nH]2)nnc1-c1cccc(OC)c1 | i | · | 1.7% |
| Cc1ccc(CNS(=O)(=O)c2ccc(C(C)(C)C)cc2)n1C | i | -0.35 | 5.4% |
| COCCCn1cnc2c(c1=O)c1nc3ccccc3nc1n2-c1ccc(C)cc1 | i | -0.75 | -1.1% |
| Cc1cc(C(=O)NCc2ccco2)cs1 | i | 1.3 | -7.5% |
| CCN(CC)CCSc1nc(O)c(-c2ccccc2)c(=O)[nH]1 | i | 1.6 | -0.8% |
| Cc1ccc2nc(SCC(=O)Nc3c(C)n(C)n(-c4ccccc4)c3=O)[nH]c2c1 | i | 0.73 | 0.6% |
| C/C(=N\OCC(=O)N/N=C/c1ccccc1)c1cccs1 | i | · | -1.9% |
| COC(=O)Cc1cc(=O)n(-c2ccccc2)[nH]1 | i | -1.2 | -1.1% |
| Cc1cccc(C)c1NC1=NC2(CCCCC2)N=C(N)N1 | i | -1.1 | -6.0% |
| CCN(CC)CCn1c2ccccc2c2cnc(N)c(C#N)c21 | i | · | 1.6% |
| C=CCn1c(O)c(C2=c3ccccc3=NC2=O)s/c1=N/c1nccs1 | i | -0.42 | -1.2% |
| CCOC(=O)c1c(NC(=O)CSc2nnc(C)c(=O)[nH]2)sc2c1CCCC2 | i | · | -4.4% |
| COc1ccc(N2C(=O)CC(c3ccc(OC(C)C)cc3)C2=O)cc1 (stereo unspecified) | i | -1.1 | 4.3% |
| CCOC(=O)CSC1=C(C#N)C(c2ccccc2F)C(C(C)=O)=C(C)N1 (stereo unspecified) | i | -1.3 | -3.1% |
| CC(CCc1ccco1)NC(=O)CSc1cc(=O)n(C)c2ccccc12 (stereo unspecified) | i | 0.17 | 0.1% |
| CC[N+]1(C)CCC(=C2c3ccccc3CC(=O)c3sccc32)CC1 (stereo unspecified) | i | · | -7.3% |
| Cc1nnc(SCC(=O)Nc2nsc(-c3ccc(Cl)cc3)n2)s1 | i | · | -0.4% |
| COc1ccc(NC(=O)Cn2nnc(-c3ccccc3NC(=O)C3CC3)n2)cc1 | i | 0.84 | -5.3% |
| CCc1nc2oc3ccccc3c(=O)c2c(=O)n1-c1ccccc1 | i | 0.33 | 10% |

Later entries
| Molecule | MT1-MMP reporter | WNV protease inh | Hsc70 |
| --- | --- | --- | --- |
| CCN1CCN(CCCNC(=O)c2cc3c(=O)[nH]c4ccccc4c3s2)CC1 | i | · | 5.3% |
| COc1ccccc1-c1cc(C(=O)Nc2ccccc2SC)no1 | i | 0.89 | 4.6% |
| CC1CCCN(C(=O)C23CCC(C)(C(=O)C2)C3(C)C)C1 (stereo unspecified) | i | 0.38 | 5.3% |
| Cn1c(N2CCCC2)nc2c1c(=O)n(Cc1ccc(F)cc1)c(=O)n2C | i | 0.4 | -2.2% |
| CC1(C)Cc2nc(N)c(C(=O)NCCO)cc2CO1 | i | 0.07 | 3.1% |
| Cc1ccc(OCC(=O)Nc2ccc(F)cc2)cc1C | i | · | 2.0% |

Source: PubChem BioAssay
